Screening data as filed in PubChem.
MT1-MMP act inh: blocks activation of human MT1-MMP | P50281 | HT1080 RFP-PRO-GFP cells, GFP/RFP ratio fluorescence, overnight; percent of plate control window, DMSO zero | GFP/RFP ratio change, % at 20 µM | 360,000 tested, 0.061% active;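 active means GFP/RFP ratio change of at least 30% with cell ATP level not reduced by more than half and red fluorescence within 50% of control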; further: strong numbers were not always called active
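Test system: HT1080 RFP-PRO-GFP cells; Benchmarks: DMSO and RFP-L50D-GFP cell wells; Timing: cells overnight before dosing, compound overnight, 37 °C, 5% CO2; Compound: one 20 µM compound dose with 1% DMSO; Read-out: GFP/RFP fluorescence ratio.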
Rce1 inhib: blocks yeast Ras-converting enzyme; calls only; Q03530; 290,000 tested, 0.27% active; yeast membranes, quenched prenylated peptide cleavage fluorescence; AID 2563;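 active means fall in fluorescence gain of 50% or more versus controls, with final raw signal at or below 3038400; inconclusive means same 50% fall but final raw signal above 3038400; inactive means fall in fluorescence gain under 50%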;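 further: plate controls were neutral control wells for no effect and wells lacking membranes for full effect; tested at 10 µM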
Target sequence (Q03530 whole entry, looked up): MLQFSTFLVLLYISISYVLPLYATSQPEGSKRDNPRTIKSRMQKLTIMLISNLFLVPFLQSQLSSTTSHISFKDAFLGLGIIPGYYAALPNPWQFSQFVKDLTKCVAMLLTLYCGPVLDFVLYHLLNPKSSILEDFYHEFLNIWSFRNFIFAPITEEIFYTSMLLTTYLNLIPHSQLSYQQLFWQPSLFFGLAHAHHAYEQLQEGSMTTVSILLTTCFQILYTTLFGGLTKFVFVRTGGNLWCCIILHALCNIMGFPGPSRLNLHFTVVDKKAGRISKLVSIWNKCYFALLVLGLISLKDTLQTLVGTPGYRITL
CSC inhib: blocks cancer stem cells. cancer stem cell-like cells viability, luminescence. inhibition, % at 7.5 µM. 300,000 tested, 1.1% active;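 active means mean at 75% or more and at least half the replicates too; inconclusive means mean and replicates disagree; tested in HMLE shEcad cells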;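 further: 0% = median of negative and 100% = median of positive control wells; the first replicate is given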
HIV Env fusion: inhibitors of HIV Env-mediated cell fusion | 360,000 tested, 1.1% active | inhibition, % at 12.3 µM | HeLa-JRFL Env/CEM21 cell fusion, luciferase;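 active means mean replicate inhibition score of at least 50 and every replicate individually at or above 50; inconclusive means only one of the two criteria met; inactive means mean below 50 and not all replicates reaching 50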;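 further: 0% = plate neutral controls and 100% = maraviroc near 300 nM; one replicate is shown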
UUG fidelity: alters start codon recognition fidelity in yeast. S. cerevisiae UUG-firefly luciferase reporter, luminescence/redox ratio. activity score, % at 18.7 µM. 350,000 tested, 0.13% active. AID 602363;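 active means replicate mean at a twofold rise or more, about +100% in these data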;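 further: firefly luciferase made from a UUG start codon reports start codon fidelity; reporter light over untreated wells divided by growth signal over untreated wells; some hits fall short of that in this replicate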
PABP FP inh: PABP-poly(A) binding inhibition; P11940; PABP-poly(A) RNA binding, fluorescence polarization; inhibition, % at 35 µM; 290,000 tested, 1% active;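 active means 50% or more with normal probe brightness, or confirmed in later tests; inconclusive means above 50% with abnormal brightness, or retests that disagree; inactive means below 50% or failed in later tests; about a fifth of its hits are not listed in these tables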;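 further: calls also rest on retests at 20 µM and on dose response follow-up; controls were probe without protein and protein plus probe with vehicle; some compounds called inactive have numbers as strong as hits; many hits fall short of the cut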
eIF4H inh: inhibitors of RNA binding by human eIF4H. AID 2012. inhibition, % at 35 µM. 290,000 tested, 0.94% active. Q15056. eIF4H fluorescence polarization binding assay;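 active means 50% or more with normal probe brightness, or confirmed in later tests; inconclusive means above 50% with abnormal brightness, or retests that disagree; inactive means below 50% or failed in later tests; about a fifth of its hits are not listed in these tables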;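 further: calls also rest on retests at 20 µM and on dose response follow-up; 0% = protein and probe with vehicle and 100% = probe without protein; strong numbers were not always called active; many hits fall short of the cut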
MT1-MMP act inh RFP: also measured in MT1-MMP act inh; calls as there; RFP signal change, %; measured here: RFP expression control read;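 0 = vehicle wells; hits needed this value within 50% of zero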
The depositor's hits bear a star; i = inactive; ? = inconclusive; nt = not tested or not shown; & = joins results of further samples; [ ] = another dose, or the depositor's remark.

SMILES	MT1-MMP act inh	MT1-MMP act inh RFP	Rce1 inhib	CSC inhib	HIV Env fusion	UUG fidelity	PABP FP inh	eIF4H inh
CC1=C(c2ccccc2)C(=S)NC(C)(C)C1	1.7	2.2	i	-2.5	-3.1	-21.1	-1.4	-0.9
CCc1nc2ccccc2c(C(=O)OC2CCCCC2=O)c1C (stereo not given)	-9.9	-7.9	i	-22.4	15.7	-35.0	23.0	12.7
OC(c1ccc(Cl)c(Cl)c1)c1ncc(-c2ccccc2C(F)(F)F)[nH]1 (stereo not given)	-2.2	-4.2	nt	nt	-13.0	-14.6	nt	nt
NNC(=O)c1cc(NS(=O)(=O)c2cccs2)cc(NS(=O)(=O)c2cccs2)c1	-0.6	4.6	nt	-2.0	-3.6	-9.6	nt	nt
CC(C)OC(=O)CSc1nc(N)c(C#N)c(-c2cccs2)c1C#N	-12.9	-10.6	i	-2.5	36.7	-12.2	-0.9	-2.5
CS(=O)(=O)N1CCCC(C(=O)Nc2ccccc2)C1 (stereo not given)	1.1	1.0	i	nt	2.3	-18.7	4.1	-0.7
CC(CC(=O)C1C(C)C=CCC1(C)C)NNC(N)=O (stereo not given)	-4.4	-1.4	i	nt	-9.7	2.7	1.3	7.5
COc1ccccc1N1C(=O)CC(Sc2ncccc2C(=O)O)C1=O (stereo not given)	13.1	6.2	i	-9.3	nt	-10.1	5.2	-8.2
CCCCN(CCCC)S(=O)(=O)c1ccc(N2CCCC2=O)c([N+](=O)[O-])c1	-0.9	-6.1	i	-7.8	7.5	-15.8	nt	nt
O=C(CSc1nnnn1-c1ccccc1)Nc1ccc(N2CCOCC2)cc1	-0.1	1.1	i	-5.9	-6.7	-9.2	-2.2	-7.9
O=C(c1ccc(Cl)c(Cl)c1)N1CCC(=O)N(C(COCc2ccccc2)Cc2ccccc2)CC1 (stereo not given)	2.4	-3.3	i	37.6	86.1*	3.4	10.9	2.8
CCC(C)(C)NC(=O)C(c1ccc(OC)cc1)N(Cc1ccco1)C(=O)CCC(=O)Nc1cc(C)on1 (stereo not given)	-2.8	-4.7	i	-3.1	33.9*	-12.3	1.0	7.2
O=C(NNS(=O)(=O)c1cccc(Cl)c1Cl)c1cccc(S(=O)(=O)N2CCOCC2)c1	0.3	-0.8	i	9.5	6.0	nt	-18.7	-16.4
COC(=O)[C@]1(Cc2ccccc2)N[C@H](CN(C)C(=O)NC(C)C)[C@@H]2C(=O)N(C)C(=O)[C@@H]21	-0.5	2.7	nt	nt	9.5	2.7	nt	nt
Cc1ccsc1C(=O)OCC(=O)NCc1ccc(Cl)cc1	4.5	1.8	nt	-11.2	nt	-15.3	nt	nt
O=C(COC(=O)/C=C/c1ccc(Br)o1)Nc1cccc(S(=O)(=O)N2CCOCC2)c1	-1.0	6.8	nt	-14.4	nt	8.5	nt	nt
Cc1ccc2nc(NCCc3ccc(Cl)cc3)c3nncn3c2c1	1.4	-1.9	i	-3.9	-8.4	-12.8	-14.6	-8.4
O=C(NCCc1ccccc1)/C(=C\c1cccc([N+](=O)[O-])c1)NC(=O)c1ccco1	-0.9	0.2	i	16.3	0.6	-9.2	-9.5	-7.1
Cc1ccccc1NC(=O)c1c(Cl)nc(C)c(Cl)c1C	7.7	0.5	i	5.1	-23.6	-6.7	-4.6	-4.4
COC(=O)CNC(=O)C1Cc2ccccc2CN1S(=O)(=O)c1cccs1 (stereo not given)	-0.1	-0.4	i	-10.8	8.9	-16.3	2.5	9.1
Cc1cccc2[nH]c(CCNC(=O)C3CCC(=O)N(CCc4cccc(F)c4)C3)nc12 (stereo not given)	-1.5	2.7	i	-14.4	-10.3	-40.8	8.0	-0.1
c1ccc(SCc2nc3ccccc3[nH]2)nc1	-2.8	0.2	i	-13.9	nt	-13.2	0.4	-0.7
COCCNC(=O)COc1cc(=O)n(C)c2ccccc12	-4.3	0.4	i	-4.0	?	-24.2	-0.2	-5.7
O=C(Nc1ccccc1)C1=C[C@H](C2CCCCC2)C[C@H](OCc2ccc(CO)cc2)O1	2.1	-2.9	i	42.0	18.5[16.7 µM]	-13.4&-12.3	4.4	-5.3
CCCC(=O)NCCSC	7.7	11.4	nt	-20.8	nt	-14.5	-2.4	-8.5

Looked up by compound from the entries so far (4):
SMILES	MT1-MMP act inh	MT1-MMP act inh RFP	Rce1 inhib	CSC inhib	HIV Env fusion	UUG fidelity	PABP FP inh	eIF4H inh
CCCCN(CCCC)S(=O)(=O)c1ccc(N2CCCC2=O)c([N+](=O)[O-])c1	-0.9	-6.1	i	-7.8	7.5	-15.8	nt	nt
CCc1nc2ccccc2c(C(=O)OC2CCCCC2=O)c1C (stereo not given)	-9.9	-7.9	i	-22.4	15.7	-35.0	23.0	12.7
CC(C)OC(=O)CSc1nc(N)c(C#N)c(-c2cccs2)c1C#N	-12.9	-10.6	i	-2.5	36.7	-12.2	-0.9	-2.5
CC(CC(=O)C1C(C)C=CCC1(C)C)NNC(N)=O (stereo not given)	-4.4	-1.4	i	nt	-9.7	2.7	1.3	7.5

The list goes on.
SMILES	MT1-MMP act inh	MT1-MMP act inh RFP	Rce1 inhib	CSC inhib	HIV Env fusion	UUG fidelity	PABP FP inh	eIF4H inh
NS(=O)(=O)c1ccc(CCNC(=O)CCCn2c(SCC(=O)N3CCCC3)nc3ccsc3c2=O)cc1	-1.2	2.2	i	6.2	4.7	nt	-1.7	-5.3
C=CCCC(=O)N1C[C@H]2CON(C)[C@H]2C[C@H]1c1ccc(-n2ccnc2)cc1	2.5	1.8	nt	nt	-5.8	-14.3	nt	nt
Cc1ccc(S(=O)(=O)N/N=C(\c2ccccc2)c2cccnc2)cc1	-0.3	-0.4	i	-6.1	4.1	-20.2	-9.2	-11.3
COc1cccc(CNC(=O)CCCNS(=O)(=O)c2cccs2)c1	-0.9	1.6	i	-10.1	nt	-15.2	-2.6	-8.2
COC(=O)Cc1c(C)c2ccc(OC(=O)c3ccco3)cc2oc1=O	-0.2	8.4	i	7.0	nt	3.6	13.3	-1.0
Cc1nccc(-c2ccc(-n3c(C)ccc3C)cc2)n1	-6.2	-0.7	i	-6.3	-3.4	nt	13.2	5.9
O=C(NC(=S)N1CCCCC1)c1csc([N+](=O)[O-])c1	8.5	7.1	i	-4.0	-28.1	1.7	-11.1	2.1
O=C(NCCC1=CCCCC1)c1ccc(Br)o1	1.7	4.4	i	-22.1	-23.0	-23.1	35.5	0.2
O=C(CCCOc1ccc(Cl)cc1Cl)Nc1ccncc1	7.8	-13.5	i	19.3	nt	-13.6	4.7	4.7
Cc1ccc(C(=O)Nc2sc3c(c2C#N)CCCCC3)cc1C	1.5	5.6	i	11.4	-265.5	-14.6	0.0	5.9
Cc1cc(C)nc(N2CCCC(C(=O)NC3CCCC3)C2)n1 (stereo not given)	3.0	-1.1	i	nt	-37.9	-12.9	-1.5	-0.3
Cc1ccc2nc(C(Cl)(Cl)Cl)nc(N/N=C/c3ccncc3)c2c1	-2.6	-4.7	i	-8.9	-25.4	nt	-1.1	-3.5
CCOC(=O)c1c(C)[nH]c(NC(=O)N2CCOCC2)c1C	-6.2	10.3	i	7.6	nt	nt	-0.4	28.3
COc1ccc(/C=C2\SC(N)=NC2=O)cc1Br	-2.2	1.5	i	1.6	-95.3	0.3	4.1	8.4
COc1cccc(NC(=O)NCc2ccccc2Cl)c1	1.8	4.0	i	3.7	-14.5	nt	nt	nt
CCN1CCN(S(=O)(=O)c2ccc(Oc3ccccc3OC)cc2)CC1	-3.3	-4.7	i	7.8	13.0	-13.6	0.1	-6.7
CCNS(=O)(=O)c1ccc(NC(=O)Nc2cccc(OC)c2)cc1	6.0	-0.5	i	-13.8	-11.6	-16.9	2.0	-1.5
COc1cccc([C@@H]2CC=C(C(=O)O)[C@H](c3ccccc3)N2S(=O)(=O)c2ccc(C)cc2)c1	2.7	-2.1	nt	-8.2	-8.8	-13.2	nt	nt
CCOc1ccc(NC(=O)C2=NN(c3ccccc3)C(=O)CC2)cc1S(=O)(=O)N1CCCCC1	-1.2	-1.5	nt	7.2	-0.6	0.1	nt	nt
CC(CCN1CCN(c2ccc(F)cc2)CC1)c1ccccc1 (stereo not given)	-6.2	-2.7	i	31.5	8.6	-16.2	13.6	5.3
O=C(Nc1ccc(O)cc1)c1cc2n(n1)C(C(F)(F)F)CC(c1ccco1)N2 (stereo not given)	-9.4	-5.5	i	33.7	nt	-2.9	0.0	5.0
Cc1ccccc1CNc1ccc(C(CC(N)=O)NC(=O)c2ccc(Br)cc2)cc1[N+](=O)[O-] (stereo not given)	9.1	-4.3	i	110.5*	-2.5	-15.1	-1.0	-7.8
Cc1ccc(S(=O)(=O)NCCCCCC(N)=O)cc1	0.7	7.0	i	-3.4	34.9	-5.8	-0.7	-2.8
Cn1ncc(N=Cc2ccccc2[N+](=O)[O-])c1C(N)=O	0.6	1.1	i	-11.8	-13.2	nt	-4.3	-6.4
CN(C)c1c(N)[nH]c2c(c1=O)c(=O)n(C)c(=O)n2C	2.6	3.7	i	0.3	nt	-10.3	-9.0	46.7
SMILES	MT1-MMP act inh	MT1-MMP act inh RFP	Rce1 inhib	CSC inhib	HIV Env fusion	UUG fidelity	PABP FP inh	eIF4H inh
CNC(=O)C1CC(=O)N(CCc2ccccc2)C(=Nc2ccc(OC)cc2)S1 (stereo not given)	-0.5	-3.9	i	8.3	-0.4	nt	?	6.8
COc1ccc(N(CC(=O)N/N=C/c2ccc3c(c2)OCO3)S(=O)(=O)c2ccccc2)cc1	nt	nt	i	17.2	nt	nt	-8.9	-8.8
Clc1cc(Cl)c2nc(N3CCCC3)sc2c1	-1.9	-0.7	i	-3.9	-74.9	2.5	nt	nt
Cc1cc(OCc2nc(-c3ccc(NC(=O)c4cccnc4)cc3)no2)ccc1Cl	4.8	0.6	i	-8.6	35.3	-17.9	0.2	6.2
O=C(CNC(=O)c1ccco1)N/N=C/c1c[nH]c2ccccc12	-1.9	-0.4	i	-11.3	5.5	-12.8	1.2	0.6
CCOC(=O)c1ccc(N2Cc3ccccc3C2=NC(=O)c2cccc([N+](=O)[O-])c2)cc1	-2.1	-6.0	nt	6.6	-5.9	nt	nt	nt
Cc1cc(C)c(S(=O)(=O)/N=C2\C=CC(=O)C(Cl)=C2)c(C)c1	6.2	5.5	nt	8.0	nt	-0.9	15.0	25.7
Nc1ccn([C@@H]2O[C@H](C(=O)N[C@H](COC=O)Cc3ccccc3)[C@@H](O)[C@H]2O)c(=O)n1	3.9	4.6	nt	nt	-2.3	-5.1	nt	nt
CC(=O)OCC1(C)CN(c2ccccc2)N(C(=O)c2ccc(F)cc2)C1=O (stereo not given)	-0.9	5.5	i	12.3	-3.2	nt	-4.1	-4.0
Cc1ccc(/C=C/C(=O)O)cc1S(=O)(=O)Nc1ccc(C(=O)O)cc1	0.4	2.4	i	5.1	-21.8	-9.6	13.9	-4.2
O=C(Nc1cccc(-c2ccc(N3CCOCC3)nn2)c1)c1ccccc1	2.9	1.1	i	nt	-16.6	nt	nt	nt
O=C(CN(Cc1ccco1)C(=O)CNS(=O)(=O)c1ccc(Cl)cc1)NCC1CCCO1 (stereo not given)	8.1	3.9	i	-6.7	0.6	nt	-3.2	-1.9
O=S(=O)(NCCCCNS(=O)(=O)c1ccc(F)cc1)c1ccc(F)cc1	1.6	0.6	nt	-37.6	8.9	-18.5	nt	nt
COc1ccc(-c2[nH]n(-c3ccc([N+](=O)[O-])cc3)c(=O)c2C=NCc2ccncc2)cc1	-11.1	-6.1	i	6.2	-1.3	nt	9.4	1.6
Cc1ccc(NC(=O)CSc2nc(N)cc(=O)[nH]2)cc1S(=O)(=O)N1CCCCCC1	4.0	-5.7	nt	nt	21.3	-7.1	nt	nt
